# Compound activity deposited in PubChem by several laboratories.
# PABP polyA inh – PABP poly(A) RNA binding inhibitors, primary screen, biochemical, fluorescence polarization, uHTS; AID 2014, 2009; hit rate 1% among 290,000; inhibition, % at 35 µM;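 active = 50% or more with normal probe brightness, or confirmed in later tests; inconclusive = above 50% with abnormal brightness, or retests that disagree; inactive = below 50% or failed in later tests; about a fifth of its hits are not listed in these tables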;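 note: calls also rest on retests at 20 µM and on dose response follow-up; controls were probe without protein and protein plus probe with vehicle; some compounds called inactive have numbers as strong as hits; many hits fall short of the cut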
# Target sequence (P11940 whole entry, looked up): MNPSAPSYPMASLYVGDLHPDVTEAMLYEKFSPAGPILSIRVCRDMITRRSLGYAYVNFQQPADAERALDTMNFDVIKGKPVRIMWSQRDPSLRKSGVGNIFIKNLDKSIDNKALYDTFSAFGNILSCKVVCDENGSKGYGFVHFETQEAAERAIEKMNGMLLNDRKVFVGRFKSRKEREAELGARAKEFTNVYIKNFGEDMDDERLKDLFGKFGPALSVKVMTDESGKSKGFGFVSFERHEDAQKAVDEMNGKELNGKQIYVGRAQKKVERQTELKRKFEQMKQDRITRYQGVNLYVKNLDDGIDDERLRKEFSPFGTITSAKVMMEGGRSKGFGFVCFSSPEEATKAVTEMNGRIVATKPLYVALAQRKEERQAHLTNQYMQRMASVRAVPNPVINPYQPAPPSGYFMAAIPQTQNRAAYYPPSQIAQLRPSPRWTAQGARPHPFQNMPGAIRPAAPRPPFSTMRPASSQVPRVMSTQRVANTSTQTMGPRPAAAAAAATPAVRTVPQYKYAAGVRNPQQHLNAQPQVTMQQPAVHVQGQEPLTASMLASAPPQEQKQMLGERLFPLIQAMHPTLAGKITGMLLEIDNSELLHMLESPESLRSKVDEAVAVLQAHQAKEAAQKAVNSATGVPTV
# CSC inhib – cancer stem cell viability inhibitors, primary screen, luminescence. hit rate 1.1% among 300,000. AID 2717, 2010. cancer stem cell-like cells viability. inhibition, % at 7.5 µM;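 active = mean at 75% or more and at least half the replicates too; inconclusive = mean and replicates disagree; tested in HMLE shEcad cells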;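 note: 0% = median of negative and 100% = median of positive control wells; the first replicate is given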
# Yeast UUG start – modulators of yeast start codon fidelity, primary screen, whole organism, S. cerevisiae, single point, plate reader. S. cerevisiae UUG-firefly luciferase reporter, luminescence/redox ratio. activity score, % at 18.7 µM. hit rate 0.13% among 350,000;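 active = replicate mean at a twofold rise or more, about +100% in these data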;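 note: firefly luciferase made from a UUG start codon reports start codon fidelity; reporter light over untreated wells divided by growth signal over untreated wells; some hits fall short of that in this replicate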
# eIF4H inh – human eIF4H binding inhibitors, primary screen, translation initiation inhibitor project, biochemical, uHTS, fluorescence polarization; Eukaryotic translation initiation factor 4H (Homo sapiens), Q15056; eIF4H fluorescence polarization binding assay; inhibition, % at 35 µM; hit rate 0.94% among 290,000;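 active = 50% or more with normal probe brightness, or confirmed in later tests; inconclusive = above 50% with abnormal brightness, or retests that disagree; inactive = below 50% or failed in later tests; about a fifth of its hits are not listed in these tables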;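 note: calls also rest on retests at 20 µM and on dose response follow-up; 0% = protein and probe with vehicle and 100% = probe without protein; strong numbers were not always called active; many hits fall short of the cut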
# Env fusion inh – inhibitors of HIV-1 Env-driven cell-cell fusion, primary screen, HeLa-JRFL effector, CEM21 target cells, luciferase; hit rate 1.1% among 360,000; inhibition, % at 12.3 µM;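 active = mean replicate inhibition score of at least 50 and every replicate individually at or above 50; inconclusive = only one of the two criteria met; inactive = mean below 50 and not all replicates reaching 50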;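 note: 0% = plate neutral controls and 100% = maraviroc near 300 nM; one replicate is shown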
# Rce1 inhib – yeast Rce1p protease inhibitors, primary screen, biochemical, fluorescence, cell-free homogeneous. CAAX prenyl protease 2 (Saccharomyces cerevisiae (strain ATCC 204508 / S288c)), Q03530. calls only. yeast membranes, quenched prenylated peptide cleavage fluorescence. hit rate 0.27% among 290,000;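 active = fall in fluorescence gain of 50% or more versus controls, with final raw signal at or below 3038400; inconclusive = same 50% fall but final raw signal above 3038400; inactive = fall in fluorescence gain under 50%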;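 note: plate controls were neutral control wells for no effect and wells lacking membranes for full effect; tested at 10 µM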
# Target sequence (Q03530 whole entry, looked up): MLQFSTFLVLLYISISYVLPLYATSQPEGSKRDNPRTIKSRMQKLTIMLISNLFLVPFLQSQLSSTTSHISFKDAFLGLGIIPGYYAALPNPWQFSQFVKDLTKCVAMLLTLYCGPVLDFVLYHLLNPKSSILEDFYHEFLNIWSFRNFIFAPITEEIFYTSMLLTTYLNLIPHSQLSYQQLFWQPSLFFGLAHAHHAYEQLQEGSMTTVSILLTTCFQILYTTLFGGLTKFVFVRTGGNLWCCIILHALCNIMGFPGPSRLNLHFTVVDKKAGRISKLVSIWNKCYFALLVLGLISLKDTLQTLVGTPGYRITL
# MT1-MMP act inh – blockers of MT1-MMP proenzyme processing, primary screen, HT1080 RFP-PRO-GFP cells, GFP/RFP fluorescence | Matrix metalloproteinase-14 (Homo sapiens), P50281 | GFP/RFP ratio fluorescence, overnight; percent of plate control window, DMSO zero | GFP/RFP ratio change, % at 20 µM | hit rate 0.061% among 360,000;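 active = GFP/RFP ratio change of at least 30% with cell ATP level not reduced by more than half and red fluorescence within 50% of control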; note: strong numbers were not always called active
#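 Assay system: HT1080 RFP-PRO-GFP cells | Dosing: 20 µM single dose, 1% DMSO | Incubation: Cells overnight before dosing, compound overnight, 37 °C, 5% CO2 | Evaluation: GFP/RFP fluorescence ratio | Control set: DMSO-only wells and HT1080 RFP-L50D-GFP cell wells as references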
# MT1-MMP act inh RFP – second read-out of MT1-MMP act inh, no call of its own (marks repeat the call); RFP signal change, %; measured here: RFP expression control read;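 0 = vehicle wells; hits needed this value within 50% of zero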
# * hit, by the source's call; i = inactive; ? = inconclusive; nt = not tested or not shown; + = active, no number; & = joins results of further samples; [ ] = dose if it differs, or a comment.
SMILES,PABP polyA inh,CSC inhib,Yeast UUG start,eIF4H inh,Env fusion inh,Rce1 inhib,MT1-MMP act inh,MT1-MMP act inh RFP
CCOC(=O)c1c(NC(=O)CSc2nnnn2C)sc(C)c1-c1ccc(C)cc1,-4.3,25.8,-5.7,6.7,81.1*,i,2.0,-17.2
Cc1ccc([C@H]2C[C@@H](n3cc(COC(=O)c4ccccc4)nn3)[C@H](O)CN2Cc2cccs2)cc1,nt,nt,-2.5,nt,-2.0,nt,1.4,-4.4
S=C(NCc1ccccc1)NC1CCSc2ccccc21 (configuration not stated),7.2,-2.0,-19.7,0.3,12.6,i,-0.9,-2.3
Brc1cccc(Nc2nc(-c3cccnc3)cs2)c1,-1.2,nt,-5.1,9.2,-10.3,i,1.2,-5.2
CCC(C)NC(=O)c1cc(S(=O)(=O)N2CCCCC2)c[nH]1 (configuration not stated),-10.8,2.1,-18.6,2.4,0.9,i,-0.2,-3.2
Cc1nccn1CC(=O)N/N=C/c1cc(Br)cs1,1.0,3.8,nt,1.6,11.8,i,-1.0,-2.7
Cc1cccc(-c2nnc(-c3cccc4ccccc34)o2)c1,nt,nt,-25.5,nt,-134.9,nt,-1.3,-4.4
O=C(CSc1nnc(-c2ccccc2)o1)N1CCc2ccccc2C1,6.5,15.4,-12.2,-4.5,-74.7,i,5.3,5.6
O=C(Nc1nccs1)c1ccc(Cl)s1,-0.5,6.7,-12.9,-7.1,-35.8,i,-5.9,1.3
CCc1ccc(Nc2nnc(SCC(=O)N(C)C3CCS(=O)(=O)C3)s2)cc1 (configuration not stated),9.1,2.6,-21.0,-10.5,-272.9,nt,-0.3,-6.1
CCOC(=O)Cc1csc(NC(=O)C(C)c2ccc([N+](=O)[O-])cc2)n1 (configuration not stated),36.1,2.2,nt,9.5,1.5,nt,-2.2,-2.3
O=c1c(F)cn(C2CCCO2)c(=O)n1Cc1c(Cl)cccc1Cl (configuration not stated),1.1,nt,-14.9,-6.3,19.7,i,-1.2,4.0
COc1ccc(NC(=O)c2ccc(N(C)S(C)(=O)=O)cc2)cc1OC,2.3,3.2,5.1,9.9,8.8,i,5.5,-5.9
Cc1cnc(C(=O)OCC(=O)NC2CCCCCCC2)cn1,0.1,nt,nt,1.7,1.7,i,3.9,6.3
COc1cccc(NCc2cc3c(C(C)(C)C)nn(-c4ccccc4)c3[nH]c2=O)c1,5.4,-12.5,-9.1,-11.8,-29.6,i,4.0,2.0
COCCn1c(SC(C)C(=O)Nc2ccc(Cl)cn2)nnc1-c1ccncc1 (configuration not stated),-13.1,8.9,nt,-15.4,3.5,i,-0.9,2.3
COc1ccc(CCNC(=O)CSc2nc3ccccc3o2)cc1OC,-6.5,-0.3,-8.7,-16.4,-55.1,i,2.4,1.7
CC(C)Cc1nc(C(N)=O)c2[nH]c(=O)n(-c3ccc(F)cc3)c2n1,-1.2,-16.4,-12.5,2.7,-16.6,i,-0.5,-1.7
CCCN(Cc1ccc(N(CC)CC)cc1)CC1CC1,12.4,nt,nt,8.4,12.1,i,7.4,4.6
COc1ccc(N2CCN(C(=O)c3cc4c(-c5cccc(OC)c5)nn(C)c4s3)CC2)cc1,3.3,36.3,-14.7,-1.4,15.3,nt,-9.0,-5.4
CC1CCC2(CC1)NC(=O)N(Cc1cccc(C(F)(F)F)c1)C2=O (configuration not stated),2.1,nt,nt,-3.9,-1.1,i,-1.2,-8.9
O=C(N/N=C/c1ccccn1)C12CC3CC(CC(C3)C1)C2,10.8,1.2,-8.1,-0.6,-10.3,i,0.2,1.8
O=C(NCCC1CCCCN1S(=O)(=O)c1ccccc1)C(=O)Nc1ccccc1F (configuration not stated),nt,12.8,2.0,nt,nt,i,4.6,-0.8
CC(NC(=O)c1ccc(F)cc1)c1ccc(F)cc1 (configuration not stated),0.0,nt,nt,-2.6,3.7,i,-1.2,3.4
CCc1ccccc1NC(=O)CN1CCC(NC(=O)COC)CC1,8.9,38.0,-6.2,-8.3,-36.7,i,0.5,-0.2
CCC(C)NS(=O)(=O)c1ccc(S(=O)(=O)N2CCCC3(CCCCC3)C2)cc1 (configuration not stated),-0.8,4.0,-12.3,-4.8,77.4*,i,-23.0,-27.3
CCOC(=O)C1=C(CN2CCSCC2)NC(=O)NC1c1cccc([N+](=O)[O-])c1 (configuration not stated),34.5,-10.3,nt,-2.1,32.2,i,2.2,1.2
COc1ccc(CCNC(=O)CSc2nc3[nH]ncc3c(=O)[nH]2)cc1OC,-2.1,-9.4,nt,-3.1,-13.1,i,-0.5,1.3
Cc1ccc(C(=O)OCC(=O)Nc2cc(F)ccc2F)cc1NC(=O)c1ccco1,-7.0,-3.6,-14.6,-3.4,-5.6,i,4.5,8.5
Cc1cc(S(=O)(=O)NCc2ccccc2)ccc1OCC(=O)NCC1CCCO1 (configuration not stated),6.0,-14.7,-5.1,-2.9,1.9,i,7.4,2.9
CC(Oc1ccccc1)C(=O)Nc1ccc(NC(=O)c2ccccc2)cc1 (configuration not stated),2.5,1.0,6.2,0.5,24.4,i,3.7,1.5
N#CC(C(=O)NC1CCCCC1)=C1CCCCCC1,9.4,14.6,-20.8,4.6,nt,i,4.0,3.3
CSc1ccc(/C=N/N2CCN(Cc3ccccc3)CC2)cc1,-4.5,3.4,-16.8,-7.4,-18.4,i,3.8,0.5
Cc1cccc(NC(=O)CS(=O)(=O)c2cn(CC(=O)N3CCOCC3)c3ccccc23)c1,4.2,-15.3,0.6,-7.2,6.8,i,-0.9,0.1
COCCSc1nc2c(c(=O)[nH]c(=O)n2C)n1Cc1cccc(C)c1,-9.7,-4.9,-8.2,-5.5,7.9,i,0.4,-3.0
CCCc1cc(=O)[nH]c(SCC(=O)Nc2ccc(S(=O)(=O)N3CCCC3)cc2)n1,nt,15.6,-9.5,nt,4.1,nt,-0.7,3.5
O=C(NC1CCCCC1)c1ccc(CN2CCOCC2)cc1,2.7,-2.8,-19.8,-0.3,nt,nt,-5.3,-3.0
CCO[C@@H]1OC(C(=O)NCc2ccccc2)=C[C@H](C(C)(C)C)[C@H]1CCCO,-5.4,7.2,2.8&-15.3,-8.8,7.8[16.7 µM],i,4.4,2.0
Cc1cc(Br)ccc1SCC(=O)OC/C(O)=C(\C#N)c1nc2ccccc2[nH]1,14.9,2.5,nt,39.1,11.1,i,-3.0,2.9
Cc1ccc(S(=O)(=O)Nc2cc(C(F)(F)F)ccc2N2CCOCC2)c(C)c1,3.0,32.3,nt,-0.1,?,i,-8.8,-12.5
Cc1ccc(N2CCN(C(=O)c3[nH]c(C(F)(F)F)nc3-c3ccccc3)CC2)cc1,nt,nt,1.0,nt,-5.7,nt,5.4,-1.6
S=C(Nc1ccc(Cl)cc1)N(CCCN1CCOCC1)Cc1cccs1,13.8,-2.8,-10.0,-3.2,15.2,i,2.7,3.8
Cc1cccc2sc(N(CCN(C)C)C(=O)c3ccc4ccccc4c3)nc12,2.4,-2.4,-25.7,-10.0,10.6,+,3.4,3.3
COC(=O)c1cc(Cl)c(N)cc1OC,4.8,-7.2,-5.5,5.9,-0.1,i,-3.2,-1.9
CNC(=S)N(Cc1cc2cc(C)cc(C)c2[nH]c1=O)C1CCCC1,2.5,-2.3,nt,-1.2,16.3,i,-1.1,-1.4
Cc1oc2c(cc(NS(=O)(=O)c3ccc(F)cc3)c3ccccc32)c1C(=O)O,46.5,nt,-11.9,30.5,1.2,i,-3.7,7.8
COc1ccc2[nH]c(=O)c(CN(CCO)S(=O)(=O)c3ccc(C)cc3)cc2c1,4.4,12.8,nt,-5.4,12.2,i,-0.1,-1.5
O=C(Oc1c(-c2ccccc2)oc2ccccc2c1=O)c1ccccc1,-3.1,14.1,-13.1,-1.0,-1.0,i,-0.5,-2.2
COc1cccc(-n2c(SCC(=O)NCC3CCCO3)nc3c([nH]c4ccccc43)c2=O)c1 (configuration not stated),-0.7,3.8,-22.7,-5.4,-3.0,i,-9.2,-4.4
COc1ccc2[nH]c3c(=O)n(Cc4ccc(C(=O)N5CCC(C(N)=O)CC5)cc4)c(=S)[nH]c3c2c1,0.1,nt,nt,5.5,11.8,i,4.4,0.3
Cc1ccc2c(c1)c(=O)c(Br)c(C)n2Cc1ccccc1,-4.7,30.9,-4.6,-11.7,-0.9,i,2.5,-15.0
Cc1c(CCOC(=O)c2ccc(Cl)cc2Cl)sc[n+]1CC(=O)c1ccc(Br)cc1,nt,19.3,-2.2,nt,nt,nt,-1.8,1.1
O=C(Nc1ccccc1Cl)c1ccccc1Cl,-1.1,4.9,-19.0,0.7,nt,i,2.4,2.0
O=S1(=O)CCN2C(c3ccc4c(c3)CCCC4)=CSC2=N1,-2.2,-4.9,-29.9,1.3,nt,i,1.7,-2.6
Cc1cc(=S)c2cccc(C)c2[nH]1,8.5,-5.0,nt,0.0,9.8,i,nt,nt
Cc1[nH]nc2c1C(c1ccc(Cl)cc1)C(C#N)=C(N)O2 (configuration not stated),5.3,5.3,-18.9,11.7,nt,i,4.5,4.2
COCCNS(=O)(=O)c1ccc(-c2ccc(S(=O)(=O)NCCOC)cc2)cc1,7.7,-11.1,-33.8,2.4,nt,nt,-2.6,-7.6
CCOC(=O)c1ccc2c(c1)N(CC(=O)N1CCCC1)C(=O)C(C)(C)O2,4.5,-5.0,-26.4,1.6,-9.0,nt,2.8,7.0
CSc1ccc(OC2(C)CCN(Cc3cc4ccccc4o3)C2)cc1 (configuration not stated),nt,nt,-0.4,nt,3.5,nt,1.8,-3.9
Cc1ccc(/C(N)=N/OC(=O)c2cc(-c3ccccc3)nc3ccccc23)cc1,1.5,-7.8,-11.0,-7.0,24.3,i,-16.1,-4.8

# Continued.
SMILES,PABP polyA inh,CSC inhib,Yeast UUG start,eIF4H inh,Env fusion inh,Rce1 inhib,MT1-MMP act inh,MT1-MMP act inh RFP
CC(C)(C)OC(=O)N(CCc1ccccc1)Cc1ccccc1OCc1cccc(NC(=O)C2CCCC2)c1,nt,nt,-0.9,nt,4.0,nt,-9.9,-10.4
Cc1cc(NCC(=O)Nc2ccc(C)c(S(=O)(=O)N3CCOCC3)c2)ccc1Br,nt,nt,-18.0,nt,19.9,nt,3.4,-11.3
CCOC(=O)NC(CC(=O)O)c1ccc(OC)cc1 (configuration not stated),-1.2,-2.3,-24.1,-3.4,nt,i,7.8,10.4
CCCc1cnc(N2CCN(C(=O)c3ccccc3)CC2)nc1,-9.2,-14.9,2.9,-3.2,16.0,i,-1.8,-5.9
